# NPYLR7 agonist – agonists of mosquito NPYLR7 receptor, primary screen, cell-based, Aedes aegypti, calcium fluorescence, mosquito biting behavior | HEK293T NPYLR7/Galpha15, GCaMP6s calcium fluorescence | activation, % at 10 µM | 270,000 tested, 0.15% active; in the data active means activation above about 40%;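 further: 0% = vehicle and 100% = reference agonist at the receptor; some compounds past the cut are filed as inactive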
# NPYLR7 agonist max-min – further read-out of NPYLR7 agonist, marked with its call; activation, %; measured here: Max-Min RFU normalised activation; some inactives read as strong as hits;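 span of the calcium signal over five minutes; 0% = vehicle and 100% = native peptide agonist; compound fluorescence can raise it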
# Numbers without * were called inactive; & = joins results of further samples. A portion of the library; count on the stated rates, not on these rows.
SMILES,NPYLR7 agonist,NPYLR7 agonist max-min
CN1C(=O)C(CCC(=O)N2CCCOCC2)(Cc2ccccc2)c2ccccc21 (stereo unspecified),-0.5,0.2
CN(C)CC1(O)CCCN(C(=O)c2ccc(C(F)(F)F)[nH]c2=O)C1 (stereo unspecified),5.6,2.9
O=C(NC1(c2ccc(Cl)cc2)CCCC1)C1CCOCC1,3.2&0.8,-0.1&5.0
O=C(Cc1cccs1)NCCOc1ccc(-c2ccco2)nn1,-0.8,-1.6
O=C1CSC(c2ccccc2)N1O (stereo unspecified),3.6,20.7
CC1(C(=O)NS(=O)(=O)c2cccc(F)c2)CCN1C(=O)Cc1cc(F)ccc1F (stereo unspecified),2.0,-0.5
c1cn(-c2ccc(-c3nccn3CCCc3nn[nH]n3)cc2)cn1,8.8,6.4
NC(=O)CSc1nc2c([nH]c3ccccc32)c(=O)n1-c1ccccc1,0.3,3.3
CCN(Cc1noc(CC(C)C)n1)C(=O)c1cn2c(n1)CNCC2,4.4,0.6
COc1ccccc1C(=O)N1CCN(c2ncnc3c2nnn3Cc2ccccc2)CC1,-12.3,-17.7
O=C(NCc1ccc2c(c1)OCO2)c1csc(CSc2nnc(-c3ccncc3)n2-c2ccccc2Cl)n1,-11.2,-15.6
COc1cccc(CN(Cc2ccc(C(C)(C)O)o2)CC2CCCO2)c1 (stereo unspecified),5.5,19.5
FC(F)(F)c1nnc2ccc(N3CCCCC3c3ncc[nH]3)nn12 (stereo unspecified),2.6,1.0
CC(C)(O)C#Cc1ccc(C(=O)NCC2OCCc3ccccc32)o1 (stereo unspecified),3.3,-0.5
O=[N+]([O-])c1ccc(OS(=O)(=O)c2ccc(F)cc2)c(-c2nc3ccccc3o2)c1,25.3,24.8
CCc1ccccc1NC(=O)N(CCCOC)CC(=O)N(Cc1ccc(F)cc1)Cc1cccs1,4.5,-0.6
COc1cccc(CCNS(=O)(=O)c2ccc(N3CCCC3=O)cc2)c1,4.9,6.7
CCc1ccccc1NC(=O)CN1CCN(C(C)C(=O)Nc2ccc(C#N)cc2)CC1 (stereo unspecified),4.5,3.4
Cc1cccc(-n2nc(C(C)(C)C)cc2NC(=O)CN(CCC(C)C)C(=O)Nc2cccc(C#N)c2)c1,26.9,21.8
CC(CC(F)(F)F)NC1CCN(S(=O)(=O)c2ccccc2)CC1 (stereo unspecified),-2.9,-4.1
O=c1c2ccccc2cnn1CCNC1CSCCSC1,14.6,10.7
Oc1ccc(Nc2nc3nonc3nc2Nc2cccc(Br)c2)cc1,-10.0,-9.2
CCOC(=O)Nc1snc(C)c1C(C)=O,0.3,1.1
CC(C)Nc1nn(CN2CCN(Cc3ccncc3)CC2)c(=S)s1,14.0,6.1
CCc1nc(N(CCC(=O)NC2CC2)Cc2ccco2)c2ccc(Cl)cc2n1,0.8,13.2
CCNC(=O)C1CCN(Cc2ccc(C(=O)Nc3c(C)cnn3C)cc2)C1 (stereo unspecified),15.6,8.9
CCOC(=O)C1(NCc2occc2C(=O)OC)Cc2ccccc2C1,5.2,3.5
O=C(c1cncc(Oc2ccccc2CN2CCOCC2)n1)N1CCCC1,-1.2,-4.3
COc1ccc(C2SCC(=O)N2C(CC(C)C)C(=O)N2CCOCC2)cc1 (stereo unspecified),27.5,37.4
Cc1ccc(Cc2nc(N3CCCN(C(=O)Cc4cccs4)CC3)c3c(C)nn(-c4ccc(F)cc4)c3n2)cc1,-0.3,2.4
Cc1ccc(N(CCCCN2C(=O)c3ccccc3C2=O)C(=O)c2cccc(C)c2)cc1,-14.8,-16.8
CC(=O)Nc1nc(-c2cc3ccccc3oc2=O)cs1,0.0,-7.7
COc1ccc2oc(=O)c(-c3nnc(Nc4ccc(Oc5ccc(Cl)c6ccccc56)c(Cl)c4)s3)cc2c1,-7.6,-4.0
Cc1[nH]cnc1CSCCOC(c1ccccc1)c1ccccc1,6.2,0.9
Cc1ccc(-c2nc(Cc3ccccc3)no2)cc1,1.0,-0.7
Cc1cc(=S)nc(C(C)C)[nH]1,13.8,8.5
Cc1nn(C)c(C)c1CC(=O)N1CCN(CC2CC2)c2ccccc21,6.2,5.7
O=C(OCCc1cn[nH]n1)C1CC2CCC1C2 (stereo unspecified),-9.5&15.0,-10.4&5.3
O=C1CC(c2cnc(-c3ccco3)nc2)c2cnn(Cc3cccnc3)c2N1 (stereo unspecified),7.3&-3.5,2.0&-10.2
COC(=O)COc1ccc(NCC(=O)NC2CCCCC2C)c(C)c1 (stereo unspecified),14.3,12.8
COCC(=O)N[C@H]1C[C@H]2C(=O)NC[C@@H](CCC(=O)NC(C)C)N2C1,-8.7,-17.5
Cc1ccc(NC(=O)CN(C)c2ncccn2)cc1,7.0,3.4
COC(=O)c1ccc(COC(CN2CCN(S(=O)(=O)C[C@@]34CC[C@@H](CC3=O)C4(C)C)CC2)c2cccc(OC)c2)cc1 (stereo partly specified),27.7,15.4
CCOC(=O)CCCSc1nnc(-c2ccccc2Cl)n1-c1ccccc1OC,-13.0,-7.2
Nc1cc(Cl)ccc1-c1nc(C2CC2)no1,9.9,7.8
CC(c1cccs1)N(C)C(=O)c1nc(N)n[nH]1 (stereo unspecified),-2.1,-7.9
NC(COCc1ccccc1)c1csc(Nc2nncc3ccccc23)n1 (stereo unspecified),-3.0,-6.1
O=C(NCCCn1ncccc1=O)Nc1ccc(F)cc1,-7.4,-11.7
O=C(CCl)Nc1nc2cc3c(cc2s1)OCCO3,19.1,14.0
Cc1csc(=O)n1CC(=O)NCCCCOc1ccc(Cl)cc1,12.9,7.9
CCOC(=O)Cn1nc(C)c(C)c(C#N)c1=O,-0.1,17.8
COc1ccccc1Oc1ncccc1CNC(=O)C1CC=CCC1 (stereo unspecified),7.2,7.5
CCCSc1nc2c(c(=O)[nH]1)C(c1cccc(F)c1)C(C(=O)OC(C)C)C(C)=N2 (stereo unspecified),1.4,-3.6
COc1cccc(CNCC2CC(c3cccc(F)c3)=NO2)c1 (stereo unspecified),-1.8,-6.1
Cc1cc(C)cc(C(=O)N(C)Cc2nc3ccccc3c(=O)[nH]2)c1,6.3,4.1
CC(C)C(c1ccccc1)N(C)CCS(C)(=O)=O (stereo unspecified),-3.3,-5.3
Cc1cccc(Cn2c(=O)n(CC3CCC(C(=O)N4CCOCC4)CC3)c(=O)c3sccc32)c1 (stereo unspecified),7.8,5.2
O=C(CC1CCCCC1)NC(c1ccccc1)c1ccccn1 (stereo unspecified),0.5,0.5
CCCCCOc1ccc(C(=O)N(C)CCc2ccccn2)cc1OCCCCC,-7.8,-12.5
O=C(Cn1cc(C(F)(F)F)ccc1=O)NCC(F)(F)F,-0.2,-6.2

# Complete entries from above:
# Listed for CCOC(=O)Cn1nc(C)c(C)c(C#N)c1=O → NPYLR7 agonist = -0.1; NPYLR7 agonist max-min = 17.8
# Listed for COc1ccccc1Oc1ncccc1CNC(=O)C1CC=CCC1 (stereo unspecified) → NPYLR7 agonist = 7.2; NPYLR7 agonist max-min = 7.5

# Reformatted with two lines to a compound: 24 of the compounds above
# Values in the order: NPYLR7 agonist, NPYLR7 agonist max-min
Cc1ccc(-c2nc(Cc3ccccc3)no2)cc1
 : 1.0, -0.7
Cc1cc(=S)nc(C(C)C)[nH]1
 : 13.8, 8.5
Cc1nn(C)c(C)c1CC(=O)N1CCN(CC2CC2)c2ccccc21
 : 6.2, 5.7
O=C(OCCc1cn[nH]n1)C1CC2CCC1C2 (stereo unspecified)
 : -9.5&15.0, -10.4&5.3
O=C1CC(c2cnc(-c3ccco3)nc2)c2cnn(Cc3cccnc3)c2N1 (stereo unspecified)
 : 7.3&-3.5, 2.0&-10.2
COC(=O)COc1ccc(NCC(=O)NC2CCCCC2C)c(C)c1 (stereo unspecified)
 : 14.3, 12.8
COCC(=O)N[C@H]1C[C@H]2C(=O)NC[C@@H](CCC(=O)NC(C)C)N2C1
 : -8.7, -17.5
Cc1ccc(NC(=O)CN(C)c2ncccn2)cc1
 : 7.0, 3.4
COC(=O)c1ccc(COC(CN2CCN(S(=O)(=O)C[C@@]34CC[C@@H](CC3=O)C4(C)C)CC2)c2cccc(OC)c2)cc1 (stereo partly specified)
 : 27.7, 15.4
CCOC(=O)CCCSc1nnc(-c2ccccc2Cl)n1-c1ccccc1OC
 : -13.0, -7.2
Nc1cc(Cl)ccc1-c1nc(C2CC2)no1
 : 9.9, 7.8
CC(c1cccs1)N(C)C(=O)c1nc(N)n[nH]1 (stereo unspecified)
 : -2.1, -7.9
NC(COCc1ccccc1)c1csc(Nc2nncc3ccccc23)n1 (stereo unspecified)
 : -3.0, -6.1
O=C(NCCCn1ncccc1=O)Nc1ccc(F)cc1
 : -7.4, -11.7
O=C(CCl)Nc1nc2cc3c(cc2s1)OCCO3
 : 19.1, 14.0
Cc1csc(=O)n1CC(=O)NCCCCOc1ccc(Cl)cc1
 : 12.9, 7.9
CCOC(=O)Cn1nc(C)c(C)c(C#N)c1=O
 : -0.1, 17.8
COc1ccccc1Oc1ncccc1CNC(=O)C1CC=CCC1 (stereo unspecified)
 : 7.2, 7.5
CCCSc1nc2c(c(=O)[nH]1)C(c1cccc(F)c1)C(C(=O)OC(C)C)C(C)=N2 (stereo unspecified)
 : 1.4, -3.6
COc1cccc(CNCC2CC(c3cccc(F)c3)=NO2)c1 (stereo unspecified)
 : -1.8, -6.1
Cc1cc(C)cc(C(=O)N(C)Cc2nc3ccccc3c(=O)[nH]2)c1
 : 6.3, 4.1
CC(C)C(c1ccccc1)N(C)CCS(C)(=O)=O (stereo unspecified)
 : -3.3, -5.3
Cc1cccc(Cn2c(=O)n(CC3CCC(C(=O)N4CCOCC4)CC3)c(=O)c3sccc32)c1 (stereo unspecified)
 : 7.8, 5.2
O=C(CC1CCCCC1)NC(c1ccccc1)c1ccccn1 (stereo unspecified)
 : 0.5, 0.5

# The list continues:
SMILES,NPYLR7 agonist,NPYLR7 agonist max-min
Cc1ccc(C)c(NC(=O)c2c(-c3ccccc3Cl)noc2C)c1,2.4,3.4
O=C(NCCc1c[nH]c2ccccc12)NC1CCCC1,-0.2,3.7
Cc1ccccc1NC(=O)CSc1nc(N)c(NC(=O)c2ccccc2)c(=O)[nH]1,-4.8,-8.9
COC(=O)C1=C(C)Nc2ncnn2C1c1ccco1 (stereo unspecified),0.6,5.0
COCCNC(=O)Cn1nc2c(c1NC(=O)/C=C\c1ccccc1)CSC2,-6.4,-3.3
O=C(NC1CC1)C1CC(=O)N(C2CCCCCCC2)C1 (stereo unspecified),3.5,3.6
CCCc1cnc2c(c1SCc1cc(C)ccc1C)c(=O)n(C)c(=O)n2C,5.8,6.4
CC(C)CCN1C(=O)C(C)(C)COc2ccc(NC(=O)c3ccccc3F)cc21,2.3,1.7
CN(C)c1cc(NN=Cc2cccs2)nc(N(C)C)n1,1.8,-2.7
Cc1c(C(=O)NCc2cccnc2N2CCN(C)CC2)cnc2ccnn12,0.7,-5.7
O=S(=O)(c1cc2ccccc2o1)N1CCCn2cncc2C1,4.4,0.1
O=C(C1=Cc2ccccc2OC=C1)N1CCCC(Nc2ccc(F)cc2)C1 (stereo unspecified),1.7,-4.5
O=C(CN1Cc2ccccc2OC(c2ccsc2)C1)NCC1(c2ccccc2)CCOCC1 (stereo unspecified),19.1,5.0
O=C(NC(C(=O)NCc1ccccc1)C1CCN(C(=O)C2CC2)CC1)c1ccccc1 (stereo unspecified),6.1,4.2
CCCCC(CC)C(=O)Nc1ccc(N2CCCC2)c(C(=O)NCc2ccccc2)c1 (stereo unspecified),7.0,12.7
CSCc1cccc(NC(=O)NCCCc2c(C)noc2C)c1,0.5,0.5
C=C(Br)CN(C)CC1CCS(=O)(=O)C1 (stereo unspecified),2.6,1.4
O=C(Nc1ccc(Oc2ccccc2)cc1)c1ccc(CSc2nnc3ccccn23)cc1,-6.1,-12.7
Cc1ccc(NC(=O)Nc2ccc(N3CCCC3)c(C(=O)NC(C)c3ccccc3)c2)c(C)c1 (stereo unspecified),4.1&-0.1,1.3&10.3
Cc1ccc(C)n1-c1ccc(N)c(C(F)(F)F)c1,2.8,2.8
Cc1cn2cc(CNC(=O)c3ccc(C4CCCO4)s3)nc2s1 (stereo unspecified),5.0&-0.3,3.0&-2.2
Cc1cc(OCC2c3ccsc3CCN2C(=O)CN(Cc2ccco2)C(=O)NC(C)C)ccc1Cl (stereo unspecified),6.5,7.3
COCc1nc2n(n1)CC(Nc1ccc(Br)cn1)CC2 (stereo unspecified),5.2&-21.8,5.1&-23.3
COc1ccccc1N1C(=O)/C(=C/c2ccc(Br)cc2)C=C1c1ccccc1,-0.2,3.1
C=CCN(C(=O)c1ccc(-c2ccc3c(c2)OCCO3)s1)C1CCCCC1,3.3,3.8
NC(=O)C1CCCCN1C(=O)CN1CCN(C(c2ccc(F)cc2)c2ccc(F)cc2)CC1 (stereo unspecified),-0.3,6.5
CCCCS(=O)(=O)N1CCCC1c1nc2cc(-c3ccccc3C)ccc2o1 (stereo unspecified),6.9,5.4
CCOC(=O)CNc1c(-c2ccc(O)cc2)nc2ccc(Br)cn12,-11.3,-8.8
Cc1cccc(C(C(=O)NCc2cnc(C)cn2)N(C)C)c1 (stereo unspecified),8.5,5.6
CNS(=O)(=O)c1cc(-c2ccc(NC3CCCCC3)nn2)ccc1C,-15.4,-22.6

# Compound activity as filed in PubChem BioAssay.
